Screens (PubChem)
2A StopGo: High Throughput Screening for Foot and Mouth Disease Virus Antivirals; human cells with a luciferase reporter of 2A StopGo recoding; control for the full effect not named in the record; Potency, µM (titrated, usually from 57.9 µM), inactives show at the top dose signal change, negative = less light; 410,000 tested, 1.2% active; AID 1159524, 2015; active = well fitted falling curve with a large enough effect; inconclusive = small, poorly fitted or top-dose-only effect; inactive = no such curve, though single readings can be large or run the other way; tested in HEK293T cells; note: nearly all actives have a fitted effect of over 45% in size; luciferase light after 4 h
RE007 growth inh: qHTS Assay for Inhibitors of the HIV-1 protein Vpr; S. pombe RE007 Vpr strain, BacTiter-Glo ATP luminescence, 24 h; control for the full effect not named in the record; AID 651644, 2012; Potency, µM (highest dose often 92.2 µM), for the others: top-dose activity change, negative = less growth; 360,000 tested, 0.21% active; active = well fitted falling curve with a large enough effect; inconclusive = small, poorly fitted or top-dose-only effect; inactive = no such curve, though single readings can be large or run the other way;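 note: nearly all actives have a fitted effect of over 50% in size; the assay follows cell death caused by Vpr and the record does not say whether a fall means rescue or toxicity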
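Fission yeast strain RE007, carrying one chromosomally integrated HIV-1 vpr copy, was seeded at OD 0.01 in PMG+AL medium with 23 nL pinned compound. After 24 h at 30 °C and 99% humidity, viability was read by BacTiter-Glo luminescence.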
Starred values were filed as active, the others as inactive; ? = inconclusive; [ ] = remark or other dose. % is set by controls: 0 for no effect and ±100 for the full control effect; potency is the fitted concentration of half-maximal effect. These rows are one share of the data (hit frequency here may not be typical).

SMILES | 2A StopGo | RE007 growth inh
Cc1cc(C)n2nc(C(=O)OCC(=O)Nc3ccc(Cl)cc3)nc2n1 | -20% | 8%
COc1ccc(CC(Cc2ccc(OC)c(OC)c2)NC=O)cc1OC | 0% | 9%
CC(C)(C)n1nnnc1C(c1cc2ccccc2o1)N(CCC#N)Cc1ccccc1 (stereo not drawn) | -23% | 6%
NC(Cc1ccccc1)c1csc(Nc2cc(Oc3ccccc3)ncn2)n1 (stereo not drawn) | ? | -13%
CC(C)NC(=O)C1(C)CCCN1Cc1ccccc1C#N (stereo not drawn) | -14% | -5%
O=C(CC[C@H]1O[C@@H](n2cnc3c(NC(=O)c4ccccc4)ncnc32)[C@H](O)[C@@H]1O)NCc1nc2ccccc2[nH]1 | -17% | -2%
CC(C)(C)n1nnnc1C(c1ccnc2ccccc12)N1CCC2(CC1)C(=O)NCN2c1ccccc1 (stereo not drawn) | -2% | 5%
Cc1ccc(N=Cc2cc3c(cc2[N+](=O)[O-])OCO3)cc1[N+](=O)[O-] | 8% | -17%
Cc1cc2oc3ccc(NCCC4CCCN4C)cc3c(=O)c2cc1C (stereo not drawn) | 3% | -16%
COc1ccc(-c2ccc(C(=O)Nc3ccc(OC)nc3)c3occc23)c(C)c1 | ? | 2%[18.4 µM]
C#CCN(C[C@H]1[C@H](OC(=O)NC2CC2)[C@H](OC(=O)NC2CC2)C[C@@H](C(=O)OC)[C@H]1C(=O)OC)S(=O)(=O)c1ccc(C)cc1 | -23% | -11%
COc1ccc(NC(=O)N(C)C[C@@H]2OCc3ccccc3-c3c(n(C)c4ccccc34)C(=O)N([C@H](C)CO)C[C@H]2C)c(OC)c1 | ? | 7%
CC(C)=CCC[C@H](C)C[C@@H]1Cc2[nH][nH]c(=O)c2[C@@H](c2ccc(F)cc2)O1 | -16% | 1%
Cc1ccc(SCc2c(C(=O)N/N=C/c3ccco3)nnn2-c2nonc2N)cc1 | -16% | 4%
O=C(NCCN1CCC(n2c(=O)[nH]c3ccccc32)CC1)c1ccc(OC(F)(F)F)cc1 | -29% | -18%
CCOCCC(=O)Nc1ccc2c(c1)c(=O)n(C)n2C/C=C/c1ccccc1 | -3% | 0%[18.4 µM]
CSc1ccc(CN2CCC2(C)C(=O)NC2CCc3ccccc32)cc1 (stereo not drawn) | ? | -11%[18.4 µM]
COc1ccc(CNS(=O)(=O)c2ccc(C)cc2)cc1 | 12% | 8%
Cc1cccc(C)c1NC(=O)C1(C)CN(S(C)(=O)=O)CC(=O)N1Cc1cccc(F)c1 (stereo not drawn) | -11% | 0%
CCOc1ccc(CCN2C(=S)N([C@@H](CC(C)C)CN3CCCC3CN3C(=S)NC[C@@H]3Cc3ccc(O)cc3)C[C@@H]2Cc2ccc(O)cc2)cc1 (stereo partly drawn) | ? | -16%
CCOC=C1SC(=S)N(c2ccccc2OC)C1=O | -18% | -17%
CCCc1nc2ccc(C)cn2c1Cc1cccc(F)c1 | 22% | ?
CCCCN(C(=O)c1cccc(S(=O)(=O)N(C)c2ccc(C)cc2)c1)c1c(N)n(CC(C)C)c(=O)[nH]c1=O | -7% | 2%
CN(C(=O)COC(=O)c1ccc(S(=O)(=O)N2CCCCCC2)cc1)c1ccccc1 | -18% | -17%

Record cards, as listed above. Order of values: 2A StopGo, RE007 growth inh
`COc1ccc(CNS(=O)(=O)c2ccc(C)cc2)cc1` as listed: 12%, 8%
`COc1ccc(CC(Cc2ccc(OC)c(OC)c2)NC=O)cc1OC` as listed: 0%, 9%
`CC(C)(C)n1nnnc1C(c1cc2ccccc2o1)N(CCC#N)Cc1ccccc1` (stereo not drawn) as listed: -23%, 6%
`CC(C)NC(=O)C1(C)CCCN1Cc1ccccc1C#N` (stereo not drawn) as listed: -14%, -5%
`COc1ccc(-c2ccc(C(=O)Nc3ccc(OC)nc3)c3occc23)c(C)c1` as listed: ?, 2%[18.4 µM]

Next part:
SMILES | 2A StopGo | RE007 growth inh
Cc1ccc(OCC(=O)Nc2ccc3c(c2)nc(CCN2CCCC2)n3C)cc1 | -12% | 2%
COc1cccc(NC(=O)N(C)C[C@@H]2Oc3cc(Br)ccc3S(=O)(=O)N([C@@H](C)CO)C[C@H]2C)c1 | 3% | -8%
CN(CCc1ccccc1)C(=O)c1cccc(NC(=O)Cc2cccc(NC(=O)C3CCCN(C(=O)C4CCCC4)C3)c2)c1 (stereo not drawn) | ? | 6%
Cn1c(=O)c(=O)n(C)c2cc(S(=O)(=O)CCC(=O)Nc3ccccc3C(F)(F)F)ccc21 | -22% | -18%
COc1ccc(C(O)c2nc(-c3cccc(NC(C)=O)c3)cs2)cc1 (stereo not drawn) | -1% | 15%
Cc1cc(F)ccc1-c1cc(C(=O)NCc2cccs2)[nH]n1 | 58%[activator] | 5%
CC(C)C(=O)N1CCCC1(C)C(=O)Nc1ccc(-n2cccc2)cc1 (stereo not drawn) | -13% | 8%[18.4 µM]
CNc1cncc(-c2ccc(CN(C)C)cc2)n1 | 21% | 5%[18.4 µM]
Cc1ccc(Cc2c(-c3ccc(C)cc3)nc3ccc(Cl)cn23)cc1 | 12% | -5%
Cc1cnc(C2OCCO2)c2cccc([N+](=O)[O-])c12 | -15% | 1%
COC(=O)[C@]12CCCCC=C1N(Cc1ccc3c(c1)OCO3)C(=O)[C@H](CC(=O)NCc1ccc(C)o1)C2 | -19% | 4%
O=C(Nc1ccc(F)c(Cl)c1)c1ccc2sc([C@H]3C[C@H](O)[C@@H](CO)O3)nc2c1 | -23% | -3%[18.4 µM]
COc1cccc(-c2cnc(C(O)c3ccccc3)[nH]2)c1 (stereo not drawn) | 55%[activator] | -25%
COC(=O)[C@@]12C[C@@H](CC(=O)N3CCCCC3)C(=O)N(Cc3ccco3)C1=CCC(C)(C)C2 | -17% | -9%
OC1CCC(Nc2ccn3nc(-c4cccc(OCc5ccccc5)c4)cc3n2)CC1 (stereo not drawn) | 0% | 106%
CCN(CC)c1ccc(S(=O)(=O)N2CCOCC2)cc1NC(=O)CNCc1cccc(Cl)c1 | -22% | 6%
CC(C)C[C@@H](CN1CCCC1CN1C(=S)NC[C@@H]1Cc1ccccc1)N1C[C@H](Cc2ccc(O)cc2)N(CC2CCCCC2)C1=S (stereo partly drawn) | -24% | 6%
Cc1cc(NC(=O)c2cc3cc([N+](=O)[O-])ccc3s2)no1 | -5% | 3%
O=C(NCc1cccc(Cl)c1)c1ccc(-n2cncn2)c2ccoc12 | 27% | -5%
C[C@@H]1CN([C@H](C)CO)C(=O)CCCn2cc(nn2)CO[C@H]1CN(C)C(=O)Nc1ccc(-c2cccs2)cc1 | -22% | -1%
NS(=O)(=O)c1ccc(CCNC(=O)CSc2nc3c(sc(=S)n3-c3ccccc3)c(=O)[nH]2)cc1 | -17% | 8%
COc1ccc(C(C#N)CC(=O)c2ccc(OCc3ccccc3)c(OC)c2)cc1OC (stereo not drawn) | -25% | 0%
COc1ccc(C2=Nc3ccccc3N(C(=O)c3ccncc3)C2C(=O)NC(C)(C)C)cc1 (stereo not drawn) | 6% | -14%
Cn1nccc1-c1ccc(C(=O)NCc2ccc(Cl)cc2)c2occc12 | 9% | -27%
O=C(NC1CCCCC1)N1Cc2ccccc2-n2nncc2C1 | -2% | 10%
Cc1ccc(OC(=O)N(C)C[C@@H]2OCc3cn(nn3)CCCC(=O)N([C@H](C)CO)C[C@H]2C)cc1 | -13% | 10%
O=C(Nc1ccc(-c2nc3ccccc3[nH]2)cc1)C1CCCN(Cc2ccn[nH]2)C1 (stereo not drawn) | 30% | -11%
Cc1cccc(-n2ncc3c2CCCC3NC(=O)c2ccncc2)c1C (stereo not drawn) | ? | -1%
COc1ccc(C(O)c2nc(-c3ccc(N(C)C)cc3)cs2)cc1 (stereo not drawn) | -8% | -10%
O=C(NCc1ccc(F)cc1)c1cc(C2CCCN(C(=O)c3ccc4c(c3)CCO4)C2)on1 (stereo not drawn) | ? | 6%
CCc1nc2c(OCCC3CCCCC3)cccn2c1N(C)C(=O)c1ccco1 | -19% | 2%[18.4 µM]
CCCc1c(-c2cccc(F)c2)ncn1CCc1ccccc1OC | ? | -22%
Cn1c(=O)c2cc(NC(=S)NC3CCCCC3)ccc2n1C/C=C/c1ccccc1 | -21% | -4%
COc1ccc(-c2cn3c(C)c(C(=O)NCc4ccc5c(c4)OCO5)sc3n2)cc1 | -27% | -4%
CC(C)COC(=O)N(C)C[C@H]1OCc2cnnn2CCCC(=O)N([C@@H](C)CO)C[C@H]1C | ? | 4%
COc1ccccc1CN1CCNCC1 | 36%[activator] | 0%

Compounds above containing a CF3 group:
SMILES | 2A StopGo | RE007 growth inh
O=C(NCCN1CCC(n2c(=O)[nH]c3ccccc32)CC1)c1ccc(OC(F)(F)F)cc1 | -29% | -18%
Cn1c(=O)c(=O)n(C)c2cc(S(=O)(=O)CCC(=O)Nc3ccccc3C(F)(F)F)ccc21 | -22% | -18%

Further records:
SMILES | 2A StopGo | RE007 growth inh
O=C(OCc1ccccc1F)c1cc(S(=O)(=O)N2CCCCC2)ccc1N1CCOCC1 | ? | -2%
CCCCCCCCSC1=CC(=O)C(OC)=C(OC)C1=O | 18µM* | -8%
CCOC(=O)C1CCN(C(=O)c2ccc3c(=O)n4nc(Nc5ccccc5CC)sc4nc3c2)CC1 | ? | -9%
COc1ccccc1CNC(=O)COC(=O)Cn1cnc2c1c(=O)n(C)c(=O)n2C | -18% | 1%
COc1ccccc1-c1cc(NC(C)=O)c2ncc(-c3cccc(C(F)(F)F)c3)n2c1 | -28% | 0%[18.4 µM]
OCC[C@@H]1C[C@@H](O)[C@H](O)[C@@]2(CCCO2)O1 | -8% | 6%
COc1ccccc1NC(=S)NC1CCCC1 | 1% | -5%
CCCCNC(=O)C(NC(=O)c1ccc(C)cc1)C(=O)c1ccccc1 (stereo not drawn) | -5% | 1%
CCc1nc2ccc(C(=O)Nc3cccc(OCC(=O)N(C)C)c3)cn2c1N(CCC(C)C)CCN(C)C | 6% | -29%
O=C(NCC1CCCCC1)c1[nH]c(C(F)(F)F)nc1-c1ccccc1 | ? | 7%
CCc1ccc(C(C#N)=CC=Cc2ccccc2)cc1 | 56%[activator] | 1%
COc1cccc(C(=O)NC2CC3CCCC(C2)N3Cc2ccc(F)cc2)c1 (stereo not drawn) | -5% | -16%

Two compounds drawn at random from those above:
SMILES | 2A StopGo | RE007 growth inh
OCC[C@@H]1C[C@@H](O)[C@H](O)[C@@]2(CCCO2)O1 | -8% | 6%
CN(C(=O)COC(=O)c1ccc(S(=O)(=O)N2CCCCCC2)cc1)c1ccccc1 | -18% | -17%

Later entries.
SMILES | 2A StopGo | RE007 growth inh
COc1ccc(OC)c(N(CCN2C(=O)c3ccccc3C2=O)C(=O)C2CCC(=O)C2C)c1 (stereo not drawn) | -14% | -4%
N#CCc1c(C#N)c(N)nc(N2CCOCC2)c1C#N | -10% | 2%
O=C(NCc1ccccc1C(F)(F)F)c1cccc2c1C(=O)c1ccc(N3CCC(N4CCCCC4)CC3)cc1S2(=O)=O | -6% | 1%
CC1(C(=O)NCCc2ccccc2)Cc2c(-c3cccc(C(F)(F)F)c3)ccnc2O1 (stereo not drawn) | -21% | 8%
CN(C)Cc1csc(NC(=O)Nc2cccc(C(F)(F)F)c2)n1 | -22% | 5%
Cc1cc2c(cc1C)-c1nnnn1C(N1CCCC1)C(=O)N2 (stereo not drawn) | -13% | 4%
CC(C)NC(=O)C1(C)Cc2c(-c3ccc(C(N)=O)cc3)ccnc2O1 (stereo not drawn) | 0% | 4%[18.4 µM]
O=C(Cc1csc(-c2cccc(F)c2)n1)Nc1cccc(S(=O)(=O)NC2=NCCC2)c1 | 27% | 16%
Cc1ccc(S(=O)(=O)N2CCN(C(=O)COC(=O)CNC(=O)c3ccccc3F)CC2)c(C)c1 | -15% | 35%
CCCNC(=O)N1[C@H]2CC[C@@H]1C(C(=O)OC)=C(c1cc3ccccc3s1)C2 | ? | -8%
COc1cccc(CNC(=S)Nc2ccc3c(c2)c(=O)n(C)n3Cc2ccccc2)c1 | -12% | 16%
CCN1CCN(C(C(=O)NC2CCCCC2)C2CC2)CC1 (stereo not drawn) | -6% | 2%
C[C@H](CO)N1C[C@H](C)[C@@H](CN(C)Cc2ccc(Cl)c(Cl)c2)Oc2c(NS(=O)(=O)c3cn(C)cn3)cccc2C1=O | 59%[activator] | 15%
CCCC(=O)N1CCC1(C)C(=O)NS(=O)(=O)c1cccs1 (stereo not drawn) | -7% | 3%[18.4 µM]
COc1ccc(N/C(=C2\CCCC2=O)C2CCCCC2)cc1 | -17% | -3%
CCC(=O)N1CCCC(C)(C(=O)Nc2ccc(OC(F)F)cc2)C1 (stereo not drawn) | 16% | 6%
O=C1C=CC(=O)N1c1ccc(-c2nc3ccccc3o2)cc1 | 7% | 6.3µM*
NC(=O)c1cccc(-c2ccnc3c2CC(C(=O)NCc2ccc(F)c(F)c2)O3)c1 (stereo not drawn) | -14% | 15%
FC(F)(F)Oc1ccccc1C(c1nnnn1C1CCCC1)N1CCN(C/C=C/c2ccccc2)CC1 (stereo not drawn) | -10% | -5%
CCSC1C(=O)N(C)C(SCC)C(=O)N1C (stereo not drawn) | 15% | -1%
O=C(C[C@H]1CC[C@H]2[C@@H](COC[C@@H](O)CN2Cc2cc(F)ccc2F)O1)NCc1ccc(Cl)cc1 | -21% | -6%
Cc1c(N2CCCCC2)[nH]c2ccccc12 | -13% | -28%
Cc1ccc(S(=O)(=O)Nc2ccc(Nc3nccn4c(-c5cccc(OC(F)(F)F)c5)cnc34)cc2)cc1 | -23% | 0%
